# Autofluor counter: flagged as autofluorescent in microsphere protease counterscreen. fluorescence intensity (test concentration not listed). compound autofluorescence counterscreen, microsphere flow cytometry; hits give high values. actives 3.1% (n = 360,000);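 active = at least 3 SD above the mean of all compounds, about 16000 in these data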;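 also: 100 nL of 1 mM stock went into each well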
# Numbers without * were called inactive.
SMILES,Autofluor counter
Cn1ccc2c(-c3cncc4ccccc34)cc3c(c21)C1CCC3C1 (centres undefined),3532
CC(=O)Nc1cccc(Nc2cnccn2)c1,6288
CC(O)(c1cccc(F)c1)c1nc(-c2cccc(C(F)(F)F)c2)cs1 (centres undefined),3342
OC(c1ccc(F)cc1)c1nc(/C=C/c2ccccc2)cs1 (centres undefined),2967
Cc1cccc(CN2CCN(C3CN(Cc4cn(Cc5ccccc5)nn4)S(=O)(=O)C3)CC2)c1 (centres undefined),5833
C[C@H]1CN([C@@H](C)CO)C(=O)CCCn2nncc2CO[C@H]1CN(C)C(=O)c1ccc(N2CCN(C)CC2)cc1,2899
C=CCCC[C@@H]1OC(=O)CNC(=O)C([C@@H](C)CC)NC(=O)[C@@H]2CCCN2C(=O)C([C@@H](C)CC)OC(=O)[C@H](Cc2ccccc2)N(C)C(=O)[C@H](C(C)C)NC(=O)C1(C)C (some centres undefined),4301
CC(C)C[C@@H]1COc2cc(N3CC[C@H](O)C3)ccc2S(=O)(=O)N1,4361
COc1ccc(NC(=O)N(C)C[C@@H]2OCc3cnnn3CCCC(=O)N([C@H](C)CO)C[C@@H]2C)c(OC)c1,2870
O=c1[nH]c(=S)[nH]c2c1C(c1ccc(F)cc1)OC(CCOCc1ccccc1)C2 (centres undefined),5818
CC1(C(=O)NS(=O)(=O)c2cccc(Cl)c2)CCN1C(=O)c1ccccc1CCc1ccccc1 (centres undefined),4219
O=c1ccn([C@@H]2O[C@H](CNCc3ccccc3OCc3ccc(Cl)cc3Cl)[C@@H](O)[C@H]2O)c(=O)[nH]1,4509
O=C(Nc1ccc2c(c1)OCCO2)c1c(Cl)cccc1Cl,3906
CN(C)CCCNc1nc2cc(-c3cnn(Cc4ccccc4)c3)sc2c(=O)n1C,3731
COc1cc(N(CCCn2cnc3c(SC)ncnc32)CCCn2cnc3c(SC)ncnc32)cc(OC)c1OC,3462
CCOC(=O)C1=CC[C@@H](c2ccncc2)N(S(=O)(=O)c2ccc(C)cc2)C1,6285
COCC(O)Cn1ccnc1[N+](=O)[O-] (centres undefined),3478
CCCS(=O)(=O)NC(=O)C1(C)CCN(C(=O)c2cc(C)oc2C)C1 (centres undefined),2828
C[C@@H]1CNC(=O)c2c(C(=O)NCc3ccc(CNC(=O)OC(C)(C)C)cc3)ncn21,2884
O=C(NCc1ccccc1)C1c2ccccc2OCC(=O)N1Cc1cccnc1 (centres undefined),4239
O=C(O)C1(C(=O)O)CCC2(CCCCC2)CC1,3825
Cc1ccc(C)c(S(=O)(=O)Nc2ccc(C(=O)N3CCOCC3)cc2)c1,3441
O=C(O)COc1cc(Cl)c(Cl)cc1Cl,5653
O=C(Nc1ccc2c(c1)OCO2)C1Cc2c(-c3ccccc3Oc3ccccc3)ccnc2O1 (centres undefined),3849
CCCCN(C(C)=O)c1c(CC)nc2ccc(C(=O)NCCc3ccccn3)cn12,4134
CCOC(=O)C1=NOC2(C1)C(=O)Nc1ccc(OC)cc12 (centres undefined),5810
O=C(/C=C/c1cccc(Cl)c1)OCC(=O)c1ccc[nH]1,3633
CCCS(=O)(=O)NC(=O)C1(C)CCN(C(=O)c2cc(C(C)(C)C)nn2C)C1 (centres undefined),2995
O=C1Nc2ccccc2Oc2ccccc21,3500
NC(c1csc(Nc2ccccn2)n1)C1CCCCC1 (centres undefined),2742
O=S(=O)(c1ccc(Cl)cc1)N1CCN(c2nc(C(F)(F)F)nc3ccccc23)CC1,3344
N#CC(=Cc1cccs1)c1nc(-c2ccc(Cl)cc2)cs1,3608
CCC(=O)N1CCCC(C)(C(=O)NS(=O)(=O)c2cccs2)C1 (centres undefined),3701
O=C(c1cc(-c2ccccc2)on1)N(Cc1cccnc1)C(c1ccccn1)c1nc2ccccc2[nH]1 (centres undefined),4334
CC(C)c1cc(C(=O)NC2CCCCCC2)c2ccccc2n1,3081
C[C@@H]1CN([C@@H](C)CO)C(=O)CCCn2nncc2CO[C@H]1CN(C)S(=O)(=O)c1cccs1,3687
O=C(Nc1cc(Br)ccc1F)c1nc[nH]c1C(=O)NCc1ccccc1,4669
COc1cccc(C(NC(C)=O)c2nc(-c3cnn(C)c3)cs2)c1 (centres undefined),2875
O=C(Nc1cccn2nc(COCCO)nc12)C(c1ccccc1)c1ccccc1,3754
Cc1ccccc1-c1cnc(C(O)c2ccc(F)cc2)[nH]1 (centres undefined),3645
CCc1ccc([C@@H]2CC(=O)[C@@H]3CN(S(=O)(=O)c4ccccc4C)[C@H](c4ccc(Cl)cc4)C[C@@H]3N2S(=O)(=O)c2ccc(C)cc2)cc1,4349
CCCCn1nnnc1C1(C)CCC(=O)N1Cc1cccs1 (centres undefined),5582
CCCOc1ccc(F)cc1-c1cc(C(=O)NCc2ccccc2)[nH]n1,4071
Cc1ccc(S(=O)(=O)NC(=O)C2(C)CCN2C(=O)c2cccc(F)c2)nc1 (centres undefined),3719
CC(=O)O[C@H]1CC[C@]2(C)C3CC[C@@]4(C)C(C[C@@H](O)[C@@H]4O)C3[C@@H](OC(C)=O)C[C@H]2C1 (some centres undefined),3897
COc1ccc(NC(=O)C2(C)CCN2C(=O)c2ccc(C(C)(C)C)cc2)cc1OC (centres undefined),3005
COC(=O)c1nc(-c2ccc(C)cc2)[nH]c1C(C)(C)C,4287
CC(C)(C(=O)N1CCC1(C)C(=O)NC1Cc2ccccc2C1)c1ccccc1 (centres undefined),3436
O=C(NCc1ccc(F)cc1)c1cccc2c1C(=O)c1ccc(N3CCC(N4CCCCC4)CC3)cc1S2(=O)=O,5563
C[C@H](O)[C@@H]1CN2CCc3c([nH]c4ccccc34)[C@@H]2C[C@@H]1N(C)C(=O)OCc1ccccc1,5719
NC(Cc1ccc(C(F)(F)F)cc1)c1csc(Nc2cc(NCc3ccco3)ncn2)n1 (centres undefined),2992
COc1cccc(CN(C)C[C@@H]2OCc3cnnn3CCCC(=O)N([C@H](C)CO)C[C@H]2C)c1,3984
CC(C)(C)S(=O)N1Cc2cc(CO)ccc2[C@H]1CCO (some centres undefined),2840
CN(Cc1cnn(-c2ccc(F)cc2)c1)C(=O)[C@H]1O[C@@H](n2ccc(=O)[nH]c2=O)[C@H](O)[C@@H]1O,5550
CC(C)(C)Cc1c(-c2ccc(Cl)cc2)nc2ccc(Cl)cn12,3651
Cn1cnc(S(=O)(=O)N2CCCC(c3cc(C(=O)Nc4ccc(F)c(Cl)c4)no3)C2)c1 (centres undefined),3504

# Next results.
SMILES,Autofluor counter
Cn1ccc2c(-c3cccc(C=O)c3F)cc3c(c21)C1CCC3C1 (centres undefined),3712
COc1ccc([C@@H]2CC(=O)[C@@H]3CN(S(=O)(=O)c4ccc(Cl)cc4)[C@H](c4ccc(C)cc4)C[C@@H]3N2S(=O)(=O)c2ccccc2)cc1,4362
CN(Cc1ccccc1)C(c1ccnc2ccccc12)c1nnnn1-c1ccc2c(c1)OCCO2 (centres undefined),6282
O=C(NCc1ccco1)c1cccc(-c2cncc3nccn23)c1,3924
CSCC[C@H]1COC[C@@H](Cc2ccccc2)N1c1ccccc1,3759
COc1cc2[nH]c(=O)c(C(=O)NCc3ccc(C)cc3)c(O)c2cc1OC,3754
C[C@H]1CN([C@@H](C)CO)C(=O)CCCn2nncc2CO[C@@H]1CN(C)C(=O)Oc1ccccc1,3604
C[C@@H]1CN([C@H](C)CO)S(=O)(=O)c2ccc(Br)cc2O[C@@H]1CN(C)C(=O)NC1CCCC1,3921
CCCCCCN1C[C@H](n2cc(COC(=O)c3ccccc3)nn2)[C@@H](O)C[C@@H]1c1ccccc1,3847
Cc1cc(C)cc(C(O)c2ncc(-c3cccc(F)c3)[nH]2)c1 (centres undefined),2783
C[C@H]1CN([C@@H](C)CO)S(=O)(=O)c2ccc(Br)cc2O[C@@H]1CN(C)C(=O)Cc1ccccc1,3785
O=C(NCC1=C(c2cccc3ccccc23)C[C@@H]2CC[C@H]1N2Cc1ccco1)c1ccncc1,3739
CCCCn1nnnc1C1(C)CCC(=O)N1Cc1cc(OC)ccc1OC (centres undefined),5657
CC(C)CNC(=O)C1(C)CCCN1C(=O)c1cc2ccccc2s1 (centres undefined),4190
CCOC(=O)[C@]12CCCC=C1N(Cc1cccc3ccccc13)C(=O)[C@H](CC(=O)N1CCCCC1)C2,6147
O=C(CCCN1C(=O)C(c2ccccc2)Oc2cccnc21)Nc1ccccc1Br (centres undefined),3350

# Molecules above containing a COOH group:
SMILES,Autofluor counter
O=C(O)C1(C(=O)O)CCC2(CCCCC2)CC1,3825
O=C(O)COc1cc(Cl)c(Cl)cc1Cl,5653

# (cont.)
SMILES,Autofluor counter
CN(Cc1ccccc1)C(=O)c1ccc2sc([C@@H]3O[C@H](CO)[C@H](O)[C@H](O)[C@H]3O)nc2c1,3916
COc1ccc([C@H]2C[C@H](O)[C@@H](n3cc(C4CC4)nn3)CN2Cc2cccs2)cc1,3556
COc1ccc(C(=O)Oc2ccc(C)cc2)cc1S(=O)(=O)N1CCOCC1,4107
C[C@@H]1CN([C@H](C)CO)C(=O)CCCn2nncc2CO[C@@H]1CN(C)S(=O)(=O)c1cccc(F)c1,4220
CCOC(=O)c1cc(OC(=O)Cc2ccc(OC)c(S(=O)(=O)N3CCOCC3)c2)cc(C(=O)OCC)c1,2844
COCc1cccc(-c2csc(C(C)(O)c3cccc(OC)c3)n2)c1 (centres undefined),3876
c1ccc(-c2ccc3cnccc3n2)cc1,5648
Nc1[nH]c(C(=O)c2ccccc2)c(-c2ccccc2Br)c1C(=O)c1ccccc1,5572

# Quoted at random: 2 compounds from above.
SMILES,Autofluor counter
c1ccc(-c2ccc3cnccc3n2)cc1,5648
CN(Cc1ccccc1)C(=O)c1ccc2sc([C@@H]3O[C@H](CO)[C@H](O)[C@H](O)[C@H]3O)nc2c1,3916

# (list continues)
SMILES,Autofluor counter
C[C@H]1CNC(=O)c2c(C(=O)N3CCN(C(=O)OC(C)(C)C)CC3)ncn21,5048
CCOC(=O)C1(C)CCN1C(=O)c1cccnc1Oc1ccccc1 (centres undefined),3034
C[C@H]1CN([C@@H](C)CO)C(=O)CCCn2nncc2CO[C@@H]1CN(C)C(=O)c1ccc(N2CCN(C)CC2)cc1,3585
COc1cc(CN2CCC(C(=O)NC(c3ccc(F)cc3)c3ncccc3C)CC2)cc(OC)c1 (centres undefined),4071
Cc1cc(Br)cn2c(Cc3ccsc3)c(-c3ccc(Cl)cc3)nc12,6140
CCCNC(=O)c1cc(C2CCCCN2C(=O)OCC(C)C)on1 (centres undefined),3923
CC(=O)Nc1ccc(S(=O)(=O)c2ccnc3cc(Cl)ccc23)cc1,2919
C[C@H]1CN([C@@H](C)CO)C(=O)CCCn2cc(nn2)CO[C@@H]1CN(C)C(=O)Nc1ccc2c(c1)OCO2,3365
FC(F)(F)c1ccccc1Cc1c(-c2cccc(Cl)c2)nc2ccc(Cl)cn12,4976
CC(C)C[C@H]1CN(CCCC[C@H]2CNC(=O)C(=O)N2Cc2ccccc2)C(=O)C(=O)N1CC1CCCCC1,5193
CN1CCN(c2ncnc3c2ncn3[C@H]2CN(Cc3ccc(C(=O)O)cc3)C[C@@H](CO)O2)CC1,3873
Cn1ccc2c(N3CCCC3)cc3c(c21)C1CCC3O1 (centres undefined),4313
CC1(Br)C(Sc2ccccc2[N+](=O)[O-])=Nc2ccccc21 (centres undefined),5530
CCc1nc2ccc(C(=O)NCC3CCCCC3)cn2c1N(C)Cc1nccs1,4297
Cc1cc2nc(-c3nnnn3Cc3ccccc3)c(=O)[nH]c2cc1C,5479
O=C(c1ccc(CS(=O)Cc2ccccc2Cl)o1)N1CCN(c2ccccc2)CC1 (centres undefined),4169
CC(C)(C)n1nnnc1C(CCc1ccccc1)N1CCC2(CC1)C(=O)NCN2c1ccccc1 (centres undefined),5456
COc1cccc(-c2cnc(C(O)c3cccc(C)c3C)[nH]2)c1 (centres undefined),2742
CCN(CC)CCn1c(=S)[nH]c2cc(C(=O)NCc3ccccc3)ccc2c1=O,3579
C[C@H]1CN(C2CCCCC2)C(=O)[C@@H]1CC(=O)Nc1ccc(Br)cc1,3735
Cc1c(Cl)ccc(S(=O)(=O)N2CCN(C)CC2)c1Cl,3045
OCc1ccccc1-c1ccc2nccn2c1,3122
CCN1C(=O)N2C[C@H]3CON(C)[C@H]3C[C@H]2c2ccccc21,6343
O=C1Nc2ccccc2C(=O)N2c3ccccc3NC(=O)C12 (centres undefined),5406
O=C1NCN(c2ccccc2)C12CCN(C(c1cc3ccccc3o1)c1nnnn1-c1ccc3c(c1)OCCO3)CC2 (centres undefined),6208
O=C(COC(=O)c1ccccc1SCC(=O)N1CCCC1)NCc1ccc(F)cc1,3832
C[C@H](CO)N1C[C@H](C)[C@H](CN(C)S(=O)(=O)c2cccc(F)c2)Oc2cc(Br)ccc2S1(=O)=O,3727
CN(Cc1ccccc1)Cc1cc(=O)oc2ccccc12,5821
CCc1nc2ccc(C(=O)N3CCN(C)CC3)cn2c1N(CCC(C)C)CCN(C)C,3738
COc1ccc(N2CCN(c3cc(C(=O)Nc4cc(OC)c(OC)c(OC)c4)ncn3)CC2)cc1OC,3613
Cc1csc(=O)n1CC(=O)OCC(=O)Nc1ccc(F)c(F)c1F,2984
O=C1c2ccccc2C(c2nnnn2-c2ccc3c(c2)OCCO3)N1CCc1ccc(O)cc1 (centres undefined),6127
CNS(=O)(=O)c1ccc2c(c1)[nH]c(=S)n2C,2917

# Single entries from the results shown.
# O=C1c2ccccc2C(c2nnnn2-c2ccc3c(c2)OCCO3)N1CCc1ccc(O)cc1 (centres undefined) @ Autofluor counter = 6127
# CNS(=O)(=O)c1ccc2c(c1)[nH]c(=S)n2C @ Autofluor counter = 2917
# COc1ccc(N2CCN(c3cc(C(=O)Nc4cc(OC)c(OC)c(OC)c4)ncn3)CC2)cc1OC @ Autofluor counter = 3613
# O=C(COC(=O)c1ccccc1SCC(=O)N1CCCC1)NCc1ccc(F)cc1 @ Autofluor counter = 3832
# CN(Cc1ccccc1)Cc1cc(=O)oc2ccccc12 @ Autofluor counter = 5821
# CCc1nc2ccc(C(=O)N3CCN(C)CC3)cn2c1N(CCC(C)C)CCN(C)C @ Autofluor counter = 3738

# Screens: PubChem BioAssay, NMMLSC

# Not all compounds are listed. The share of hits here may be higher or lower than overall.
